# A1 apoptosis 2 = A1 inhibition read as caspase activation. caspase activation, % (concentration not given with the values). 24,000 tested, under 10 active. MEF A1-2A-BIM cells, caspase-Glo luminescence, 3 h; percent of clofoctol response, DMSO zero; in the data active = caspase activation above about 5.9%; inconclusive = no clear call, values can overlap the other calls; inactive = below about 2.2%;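 also: wells of about 30 µL received 50 nL stock; the first replicate is given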
#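 Evaluation: Caspase-3/7 activity from luminescence increase | Assay system: A1-2A-BIM mouse embryonic fibroblasts | Quantity: 2500 MEF cells/well | Medium: RPMI-1640 plus 10% FBS | Detection: Caspase-Glo 3/7 luminescence, 1 h at room temperature | Dosing: 50 nL compound per well, pinned | Timing: Cells settled overnight, compound exposure 3 h at 37 °C, 5% CO2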
# * marks the source's active call; other numbers are inactive results; ? = inconclusive.
SMILES,A1 apoptosis 2
C[C@H]1CN([C@@H](C)CO)C(=O)c2cccc(NC(=O)Nc3ccc(C(F)(F)F)cc3)c2O[C@H]1CN(C)Cc1ccccc1,-0.1
C[C@H]1CCCCO[C@H](CN(C)Cc2ccc3c(c2)OCO3)[C@@H](C)CN([C@@H](C)CO)C(=O)c2cc(NC(=O)CCCN(C)C)ccc2O1,0.7
Cc1ccc(F)cc1S(=O)(=O)N[C@@H]1CCN(Cc2cccc3[nH]ccc23)C1,0.0
C[C@@H]1CN([C@@H](C)CO)C(=O)c2cc(NC(=O)NC3CCCCC3)ccc2O[C@@H](C)CCCCO[C@H]1CN(C)S(=O)(=O)c1cccs1,-1.2
COc1ccc(CN(C)C[C@@H]2OCCCC[C@H](C)Oc3ccc(NC(=O)C4CCCCC4)cc3C(=O)N([C@@H](C)CO)C[C@@H]2C)cc1,-0.2
C[C@@H]1CN([C@H](C)CO)C(=O)c2cc(NC(=O)Cn3cnnn3)ccc2O[C@@H]1CN(C)CC1CC1,0.2
C=CC[C@@]1(C(=O)N2CCCCC2)N=C(c2ccc(OCCCO)cc2)O[C@@H]1c1ccccc1,0.3
COc1ccc(CN(C)C[C@@H]2Oc3c(NS(C)(=O)=O)cccc3C(=O)N([C@H](C)CO)C[C@H]2C)cc1,-0.4
CNC[C@H]1Oc2ccc(NC(=O)Nc3ccc(OC)cc3)cc2C(=O)N([C@H](C)CO)C[C@@H]1C,-0.9
C[C@H]1CN([C@@H](C)CO)C(=O)c2cc(NC(=O)c3ccncc3)ccc2O[C@H]1CN(C)S(=O)(=O)c1ccc(Cl)cc1,-0.4
Cc1ccc(S(=O)(=O)N(C)C[C@H]2Oc3c(NC(=O)Nc4ccccc4)cccc3C(=O)N([C@H](C)CO)C[C@H]2C)cc1,-0.5
C[C@H](CO)N1C[C@H](C)[C@H](CN(C)Cc2ccccc2)OCCCC[C@H](C)Oc2ccc(NS(C)(=O)=O)cc2C1=O,0.8
COc1ccc([Si](C)(C)[C@H]2[C@H](CCO)O[C@@]3(C(=O)N4c5c(cc(OC)cc53)C(C)=CC4(C)C)[C@@H]2C)cc1,?
COc1ccc(S(=O)(=O)N(C)C[C@@H]2Oc3c(NC(=O)CCCCCC(=O)Nc4ccccc4N)cccc3C(=O)N([C@@H](C)CO)C[C@@H]2C)cc1,0.4
CNC[C@@H]1Oc2c(NC(=O)c3cc(C)nn3C)cccc2C(=O)N([C@H](C)CO)C[C@H]1C,0.5
C[C@@H]1CN([C@H](C)CO)C(=O)Cc2cc(N(C)C)ccc2O[C@@H]1CN(C)C(=O)Nc1ccc2c(c1)OCO2,-1.4
C[C@H]1CCCCO[C@@H](CN(C)Cc2ccc(C(F)(F)F)cc2)[C@@H](C)CN([C@@H](C)CO)C(=O)c2cc(N(C)C)ccc2O1,0.7
C[C@H](CO)N1C[C@H](C)[C@H](CN(C)CC2CCCCC2)Oc2ccc(NC(=O)C3CC3)cc2C1=O,-0.3
C[C@H]1CN([C@@H](C)CO)C(=O)Cc2cc(NC(=O)Nc3ccc4c(c3)OCO4)ccc2O[C@H]1CN(C)Cc1ccc(C(=O)O)cc1,0.4
COc1ccccc1NC(=O)N(C)C[C@H]1OCc2cnnn2CCCC(=O)N([C@H](C)CO)C[C@H]1C,0.7
CNC[C@@H]1Oc2ccc(NS(C)(=O)=O)cc2CC(=O)N([C@@H](C)CO)C[C@@H]1C,0.1
COc1ccc(C#Cc2ccc3c(c2)[C@]2(C(=O)N3)[C@H](C(=O)O)[C@H]3C(=O)O[C@H](c4ccccc4)[C@H](c4ccccc4)N3[C@@H]2c2ccc(OCCO)cc2)cc1,-1.1
C[C@@H]1CN([C@H](C)CO)C(=O)c2cccc(NS(=O)(=O)c3ccccc3)c2O[C@@H]1CN(C)Cc1ccc2c(c1)OCO2,0.5
Cc1nc(S(=O)(=O)N[C@@H]2CCCN(Cc3ccc(OCCO)cc3)C2)cn1C,-0.7

# Reprinted at random: 5 records from the list, in no set order.
SMILES,A1 apoptosis 2
C[C@H]1CCCCO[C@@H](CN(C)Cc2ccc(C(F)(F)F)cc2)[C@@H](C)CN([C@@H](C)CO)C(=O)c2cc(N(C)C)ccc2O1,0.7
Cc1nc(S(=O)(=O)N[C@@H]2CCCN(Cc3ccc(OCCO)cc3)C2)cn1C,-0.7
CNC[C@@H]1Oc2ccc(NS(C)(=O)=O)cc2CC(=O)N([C@@H](C)CO)C[C@@H]1C,0.1
COc1ccc([Si](C)(C)[C@H]2[C@H](CCO)O[C@@]3(C(=O)N4c5c(cc(OC)cc53)C(C)=CC4(C)C)[C@@H]2C)cc1,?
COc1ccc(S(=O)(=O)N(C)C[C@@H]2Oc3c(NC(=O)CCCCCC(=O)Nc4ccccc4N)cccc3C(=O)N([C@@H](C)CO)C[C@@H]2C)cc1,0.4

# (cont.)
SMILES,A1 apoptosis 2
C[C@H](CO)N1C[C@H](C)[C@H](CN(C)C(=O)Nc2ccc(C(F)(F)F)cc2)Oc2ccc(NC(=O)Cc3cn(C)c4ccccc34)cc2C1=O,-1.5
COc1ccc(S(=O)(=O)N(C)C[C@@H]2Oc3ccc(NC(=O)Nc4c(C)noc4C)cc3C(=O)N([C@@H](C)CO)C[C@@H]2C)cc1,0.6
C[C@@H]1CN([C@H](C)CO)C(=O)c2cc(NS(=O)(=O)c3ccc(F)cc3)ccc2O[C@@H](C)CCCCO[C@@H]1CN(C)S(C)(=O)=O,-1.2
COc1ccc(NC(=O)N(C)C[C@H]2OCCCC[C@H](C)Oc3ccc(NS(=O)(=O)c4ccc(F)cc4)cc3C(=O)N([C@@H](C)CO)C[C@H]2C)cc1,-0.4
C[C@H]1CCCCO[C@@H](CN(C)C(=O)Nc2ccc3c(c2)OCO3)[C@@H](C)CN([C@@H](C)CO)C(=O)c2cc(NC(=O)Cc3ccccc3)ccc2O1,-0.7
COc1ccc(S(=O)(=O)N(C)C[C@@H]2Oc3c(NC(=O)NC(C)C)cccc3C(=O)N([C@@H](C)CO)C[C@@H]2C)cc1,-0.3
Cc1noc(C)c1NC(=O)N(C)C[C@H]1Oc2ccc(NS(=O)(=O)c3cccs3)cc2C(=O)N([C@H](C)CO)C[C@H]1C,-0.2
COc1ccc(S(=O)(=O)N(C)C[C@@H]2Oc3ccc(NC(=O)Nc4c(C)noc4C)cc3C(=O)N([C@@H](C)CO)C[C@H]2C)cc1,-2.2
C[C@@H]1CCCCO[C@H](CN(C)Cc2ccc(C(F)(F)F)cc2)[C@@H](C)CN([C@@H](C)CO)C(=O)c2cc(NC(=O)c3ccncc3)ccc2O1,-0.1
C[C@@H]1CN([C@@H](C)CO)C(=O)c2cccc(NC(=O)c3cnccn3)c2O[C@H]1CN(C)Cc1ccc(Cl)c(Cl)c1,-0.2
C[C@@H]1CN([C@H](C)CO)C(=O)c2cc(NS(=O)(=O)c3ccc(Cl)cc3)ccc2O[C@H]1CN(C)Cc1ccc(C(F)(F)F)cc1,1.4
Cc1ccc(S(=O)(=O)Nc2ccc3c(c2)CC(=O)N([C@@H](C)CO)C[C@@H](C)[C@@H](CN(C)Cc2ccc(C(=O)Nc4ccccc4N)cc2)O3)cc1,-1.1

# A different layout for two compounds above.
Structure | A1 apoptosis 2
Cc1noc(C)c1NC(=O)N(C)C[C@H]1Oc2ccc(NS(=O)(=O)c3cccs3)cc2C(=O)N([C@H](C)CO)C[C@H]1C | -0.2
C[C@H]1CCCCO[C@@H](CN(C)C(=O)Nc2ccc3c(c2)OCO3)[C@@H](C)CN([C@@H](C)CO)C(=O)c2cc(NC(=O)Cc3ccccc3)ccc2O1 | -0.7

# Following part
SMILES,A1 apoptosis 2
COc1ccc(S(=O)(=O)N(C)C[C@H]2Oc3ccc(NS(=O)(=O)c4cccs4)cc3CC(=O)N([C@H](C)CO)C[C@@H]2C)cc1,-1.6
C[C@@H]1CN([C@H](C)CO)C(=O)c2cc(NC(=O)Cc3cn(C)c4ccccc34)ccc2O[C@H]1CN(C)Cc1ccc(C(=O)O)cc1,-1.0
C[C@@H]1CN([C@@H](C)CO)C(=O)c2cccc(NC(=O)Nc3ccc4c(c3)OCO4)c2O[C@@H]1CN(C)Cc1ccc(-c2ccccc2)cc1,-0.6
C[C@@H]1CN([C@H](C)CO)C(=O)c2cccc(NC(=O)Nc3cccc4ccccc34)c2O[C@@H]1CN(C)S(=O)(=O)c1cn(C)cn1,0.4
CC(C)NC(=O)N(C)C[C@H]1Oc2ccc(NC(=O)Cc3ccccc3)cc2C(=O)N([C@H](C)CO)C[C@H]1C,1.3
COc1ccc(NC(=O)Nc2ccc3c(c2)CC(=O)N([C@@H](C)CO)C[C@H](C)[C@H](CN(C)Cc2ccccc2)O3)cc1,-1.4
C[C@@H]1CN([C@@H](C)CO)C(=O)Cc2cc(NC(=O)C3CC3)ccc2O[C@H]1CN(C)Cc1ccc(C(F)(F)F)cc1,0.4
C[C@H]1CN([C@@H](C)CO)C(=O)Cc2cc(NS(C)(=O)=O)ccc2O[C@H]1CN(C)Cc1ccc(-c2ccccc2)cc1,-0.2
C[C@H](CO)N1C[C@H](C)[C@@H](CN(C)Cc2ccc(C(=O)O)cc2)Oc2c(NS(=O)(=O)c3cn(C)cn3)cccc2C1=O,-1.4
C[C@H](CO)N1C[C@H](C)[C@@H](CN(C)C(=O)Nc2ccccc2)Oc2c(NC(=O)c3nc4ccccc4s3)cccc2C1=O,-0.8
C[C@@H]1CCCCO[C@@H](CN(C)C(=O)Nc2ccccc2)[C@H](C)CN([C@@H](C)CO)C(=O)c2cc(NC(=O)CCCN(C)C)ccc2O1,-0.9
Cc1noc(C)c1S(=O)(=O)Nc1ccc2c(c1)C(=O)N([C@H](C)CO)C[C@@H](C)[C@@H](CN(C)S(=O)(=O)c1ccc(F)cc1)OCCCC[C@@H](C)O2,0.8
CNC[C@H]1OCCCC[C@@H](C)Oc2ccc(NC(=O)Nc3ccc(F)cc3)cc2C(=O)N([C@H](C)CO)C[C@@H]1C,0.0
C[C@@H]1CN([C@H](C)CO)C(=O)c2cccc(NS(=O)(=O)c3ccccc3)c2O[C@@H]1CN(C)Cc1ccccc1,0.8
Cc1noc(C)c1NC(=O)Nc1ccc2c(c1)C(=O)N([C@H](C)CO)C[C@H](C)[C@@H](CN(C)S(=O)(=O)c1ccc(Cl)cc1)OCCCC[C@@H](C)O2,0.2
C[C@H](CO)N1C[C@H](C)[C@@H](CN(C)Cc2ccc(Cl)c(Cl)c2)Oc2c(NC(=O)c3ccc(-c4nccs4)cc3)cccc2C1=O,-0.9
C[C@H](CO)N1C[C@H](C)[C@H](CN(C)C)Oc2ccc(NC(=O)Nc3ccc4c(c3)OCO4)cc2CC1=O,-0.7
C[C@H]1CN([C@@H](C)CO)C(=O)Cc2cc(NC(=O)Nc3ccc(C(F)(F)F)cc3)ccc2O[C@@H]1CN(C)Cc1ccc(C(F)(F)F)cc1,0.0
COc1ccc(NC(=O)Nc2ccc3c(c2)C(=O)N([C@@H](C)CO)C[C@@H](C)[C@H](CN(C)Cc2ccc(Cl)c(Cl)c2)OCCCC[C@@H](C)O3)cc1,-1.3
CCO[C@@H]1OC(C(=O)O)=C[C@H](C)[C@H]1CCCO,0.3
C[C@H](CO)N1C[C@H](C)[C@H](CN(C)C(=O)CCC(F)(F)F)OCCCC[C@H](C)Oc2ccc(NC(=O)c3ccccc3)cc2C1=O,1.5
C[C@@H]1CCCCO[C@@H](CN(C)C(=O)Nc2cccc3ccccc23)[C@H](C)CN([C@@H](C)CO)C(=O)c2cc(NC(=O)Cc3ccccc3)ccc2O1,0.8
Cc1cc(C(=O)Nc2cccc3c2O[C@H](CN(C)Cc2ccc(C(F)(F)F)cc2)[C@H](C)CN([C@@H](C)CO)C3=O)n(C)n1,-2.0
C[C@H]1CN([C@@H](C)CO)C(=O)CCCn2cc(nn2)CO[C@H]1CN(C)C(=O)Nc1ccc(C(C)(C)C)cc1,-0.8
Cc1ccc(S(=O)(=O)N(C)C[C@@H]2Oc3ccc(NC(=O)c4ccncc4)cc3CC(=O)N([C@H](C)CO)C[C@H]2C)cc1,-0.1
C[C@@H]1CN([C@@H](C)CO)C(=O)c2cccc(NC(=O)c3nc4ccccc4s3)c2O[C@H]1CN(C)S(=O)(=O)c1ccccc1,-0.6
C[C@@H]1CCCCO[C@H](CN(C)C(=O)c2ccccc2)[C@@H](C)CN([C@@H](C)CO)C(=O)c2cc(NS(=O)(=O)c3cn(C)cn3)ccc2O1,0.5
COc1ccc(S(=O)(=O)N(C)C[C@H]2Oc3c(NS(=O)(=O)c4cccs4)cccc3C(=O)N([C@@H](C)CO)C[C@H]2C)cc1,-0.6
COc1ccc(CN(C)C[C@H]2Oc3ccc(NC(=O)Cc4ccccc4)cc3C(=O)N([C@H](C)CO)C[C@@H]2C)cc1,0.1
COc1ccc(CN(C)C[C@H]2Oc3ccc(NC(=O)Cc4ccccc4)cc3CC(=O)N([C@@H](C)CO)C[C@H]2C)cc1,0.1
CNC[C@@H]1Oc2ccc(NC(=O)C3CC3)cc2C(=O)N([C@H](C)CO)C[C@@H]1C,-1.2
CNC[C@@H]1Oc2ccc(NC(=O)c3ccncc3)cc2C(=O)N([C@H](C)CO)C[C@@H]1C,0.3
CC(C)NC(=O)N(C)C[C@H]1Oc2ccc(NC(=O)Nc3ccc(C(F)(F)F)cc3)cc2C(=O)N([C@@H](C)CO)C[C@H]1C,-0.7
C[C@@H]1CCCCO[C@@H](CN(C)S(=O)(=O)c2cn(C)cn2)[C@H](C)CN([C@H](C)CO)C(=O)c2cc(NS(=O)(=O)c3ccccc3)ccc2O1,0.0
C[C@H](CO)N1C[C@H](C)[C@H](CN(C)Cc2ccncc2)Oc2c(NC(=O)Nc3ccc4c(c3)OCO4)cccc2C1=O,0.8

# From PubChem

# An excerpt, so the mix of outcomes need not match the whole.
